miR-21 FLuc: raises the signal of a miR-21 reporter; HeLa miR-21 FLuc reporter, luciferase, 48 h; Potency, µM (titrated, usually from 38.3 µM), for inactives: top-dose reporter change, positive = more light; 340,000 tested, under 10 active; AID 2288; active = well fitted rising curve with a large enough effect; inconclusive = small, poorly fitted or top-dose-only effect; inactive = no such curve, though single readings can be large or run the other way;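 also: % of control where 0% means no effect; miR-21 action dims this reporter so a rising signal means less miR-21 action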
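Using DMEM plus 10% FBS, HeLa miR-21-FLuc cells are incubated with test compounds (final up to about 40uM) for 48 hours; firefly luciferase signal is then imaged following reagent-mediated lysis.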
The depositor's hits bear a star; ? = inconclusive. These rows are one share of the data, so the mix of outcomes need not match the whole.

SMILES	miR-21 FLuc
Cc1ccc(S(=O)(=O)NCCc2csc(-c3ccc(Cl)cc3)n2)cc1	25%
CCOC(=O)N1CCc2c(sc(NCc3cccs3)c2C(=O)Nc2cc(OC)ccc2OC)C1	-7%
O=C(Nc1cnn(Cc2ccc(Cl)cc2Cl)c1)c1noc2c1CCc1ccccc1-2	-7%
Cc1nn(-c2ccccc2)c2nc(C3CC3)cc(C(=O)Nc3ccccc3F)c12	25%
CCOc1ccc(NC(=O)c2ccc3c(c2)CCN3S(=O)(=O)c2ccc(Cl)cc2)cc1	15%
Cc1ccc(C(=O)N2c3ccc(C)cc3C(C)(c3ccccc3)CC2(C)C)cc1 (stereo not drawn)	20%
O=C(CCSCc1ccccc1Cl)NCCc1ccccc1	-9%
COc1ccccc1OC(C)C(=O)N1CCC(c2nc3ccccc3s2)CC1 (stereo not drawn)	?
COc1ccc(Cl)cc1NC(=O)Cn1nnc2sc3c(c2c1=O)CCC(C(C)(C)C)C3 (stereo not drawn)	3%
COc1ccc(N2CC(NC(=O)Cc3cccs3)CC2=O)cc1OC (stereo not drawn)	1%
CCCOc1ccc(NC(=O)CC2C(=O)N(c3cccc(OC)c3)C(=O)N2CCc2ccncc2)cc1 (stereo not drawn)	10%
CCCCOc1cccc(C(=O)Nc2cc3nn(-c4ccc(F)cc4)nc3cc2C)c1	-32%
CC(=O)N1c2ccc(S(=O)(=O)N3CCN(c4cccc(Cl)c4)CC3)cc2CC1C (stereo not drawn)	2%
COCCN1C(=O)c2oc3cc(C)cc(C)c3c(=O)c2C1c1cccc(O)c1 (stereo not drawn)	-10%
CCCn1cc(S(=O)(=O)c2ccc(OC)cc2)c(=O)c2cc(F)c(N3CCCCCC3)cc21	-24%
Cc1c2cnn(-c3ccccc3)c(=O)c2c(C)n1C(C)C(=O)Nc1ccccc1C(F)(F)F (stereo not drawn)	8%
COCCCn1c(=N)c(C(=O)NCC2CCCO2)cc2c(=O)n3cc(C)ccc3nc21 (stereo not drawn)	0%
Cc1cc(Cl)ccc1NS(=O)(=O)c1ccc2c(c1)CCN2S(C)(=O)=O	7%
O=C(CSCc1ccc(F)cc1)N1CCN(c2ccccc2F)CC1	-33%
CCc1nn(CC(=O)NCCN(CC(C)C)CC(C)C)c(=O)c2cc3sc(C)cc3n12	-2%
CCN(CC)C(=O)c1sc2c(c1C)c(=O)n(-c1ccc(OC)cc1OC)c(=O)n2CC(=O)c1ccc(Cl)cc1	1%
COc1ccc(C(=O)N2c3ccc(C)cc3C(C)(c3ccccc3)CC2(C)C)cc1 (stereo not drawn)	17%
COC(=O)c1ccc(C(=O)OC)c(NC(=O)N2CC3CCCN3c3ccccc32)c1 (stereo not drawn)	0%
CCOc1ccc(NC(=O)c2cc(C)nc3c2c(C)nn3-c2cccc(F)c2)cc1	2%
CCOC(=O)C1CCCN(S(=O)(=O)c2ccc3[nH]c(=O)oc3c2)C1 (stereo not drawn)	0%
Cc1ccc(-c2cc(C(=O)Oc3ccccc3)c3cc(C)ccc3n2)cc1	-17%
CCOc1ccc(NC(=O)c2c(C)oc3nc(C)nc(N4CCOCC4)c23)cc1	-11%
Cc1ccc(Nc2sc(C(=O)c3ccccc3)c(N)c2S(=O)(=O)c2ccccc2)c(C)c1	22%
CCOc1ccc(CCNC(=O)c2ccc(CS(=O)(=O)c3ccccc3C)o2)cc1OCC	21%
Cc1ccccc1CN1C(=O)C(O)(CC(=O)c2ccccc2)c2cc(Cl)ccc21 (stereo not drawn)	13%

Three neighbouring records already listed, quoted:
SMILES	miR-21 FLuc
Cc1ccc(Nc2sc(C(=O)c3ccccc3)c(N)c2S(=O)(=O)c2ccccc2)c(C)c1	22%
CCOc1ccc(CCNC(=O)c2ccc(CS(=O)(=O)c3ccccc3C)o2)cc1OCC	21%
Cc1ccccc1CN1C(=O)C(O)(CC(=O)c2ccccc2)c2cc(Cl)ccc21 (stereo not drawn)	13%

Remaining list, next part.
SMILES	miR-21 FLuc
COc1ccccc1C(=O)N1CCN(Cc2cc(=O)oc3cc(C)ccc23)CC1	-21%
COc1ccccc1Cn1c(CNS(=O)(=O)c2ccc(CC(C)C)cc2)nc2cccnc21	-3%
Cc1cccc(OCc2nc(CC(=O)Nc3ccc(C)c(C)c3)cs2)c1	-12%
Cc1cccc(C)c1NC(=O)N1CCC(C(N)=O)(N2CCCCC2)CC1	-1%
CC(C)NC(=O)C1CCCN(S(=O)(=O)c2ccc3c(ccn3C)c2)C1 (stereo not drawn)	3%
CC(=O)Nc1ccc(NC(=O)CSc2nc3ccccc3nc2N2CCOCC2)cc1	-2%
Cc1ccccc1CN1c2ccccc2-c2nc(SCC(=O)NCc3ccccc3)ncc2S1(=O)=O	-3%
CCCn1c2ccccc2c2cnn(CC(=O)NCCc3cc(OC)ccc3OC)c(=O)c21	-5%
O=S(=O)(c1cc(Br)c(Br)s1)N1CCN(c2ccccc2)CC1	-2%
COc1cc(/C=C(\C#N)C(=O)Nc2ccc(C)cc2)ccc1OCc1cc(=O)n2nc(C)sc2n1	-1%
CCOc1ccc2oc(=O)cc(CN3CCN(c4cc(C)ccc4C)CC3)c2c1	8%
Cc1ccc(OCC(=O)Nc2nnc(SCc3cc(=O)n4cc(C)ccc4n3)s2)cc1	-6%
COC(=O)c1sccc1S(=O)(=O)N(CC(=O)Nc1c(C)cccc1C)c1ccc(C)c(C)c1	11%
Cc1ccc(NC(=O)CSc2nc3ccccc3nc2Cc2ccccc2F)cc1F	-14%
Cc1cc(NS(=O)(=O)c2ccc3oc(=O)c4ncn(C)c4c3c2)ccc1Br	2%
Cc1cn2c(=O)cc(COC(=O)c3cccc(NC(=O)COc4ccccc4C)c3)nc2s1	-21%
CC1=C(C(=O)OCc2ccc(C)cc2)C(c2cccc(F)c2F)CC(=O)N1 (stereo not drawn)	0%
CC1CCN(C(=O)Cn2c(=O)n(CC3CCC(C(=O)NC(C)C)CC3)c(=O)c3sccc32)CC1 (stereo not drawn)	5%
CSc1ccc(C2c3c(oc4ccc(F)cc4c3=O)C(=O)N2c2ccc(C)cn2)cc1 (stereo not drawn)	-10%
COc1cc(-c2nc(Cn3nnc(C(=O)Nc4cccc(Cl)c4)c3C)c(C)o2)cc(OC)c1OC	-1%
COC(=O)c1c(NC(=O)c2cc(=O)c3c(C)cc(C)cc3o2)sc2c1CCCC2	-1%
Cc1cccc(S(=O)Cc2ccc(C(=O)NC3CCCCCC3)o2)c1 (stereo not drawn)	1%
CC(C)N(C(=O)Cn1cc(SCC(=O)Nc2ccccc2C(F)(F)F)c2ccccc21)C(C)C	5%
Cc1cc(C)c(NC(=O)CSc2nc(=O)n(Cc3ccco3)c3c2CCC3)c(C)c1	-7%
Cc1ccc(NC(=O)c2sc3ncnc(N(C)C4CCCCC4)c3c2C)c(C)c1	-5%
COc1ccc(Nc2oc(/C=C/c3cc(OC)c(OC)c(OC)c3)nc2C#N)cc1	21%
O=C(Cc1ccc(NC(=O)N2CCSc3ncccc32)cc1)NCc1cccc(Cl)c1	-6%
COc1ccc(CCNC(=O)CCn2c(=O)c3ccccc3n(CC(=O)Nc3cccc(C)c3)c2=O)cc1OC	2%
CCc1cccc(NC(=O)CSc2nncn3c2cc2sccc23)c1	11%
Cc1ccc(NC(=O)c2cnc3sc(N4CCOCC4)nn3c2=O)cc1N(C)C	-1%

The final 5 records of the section before are carried over, then new ones follow:
SMILES	miR-21 FLuc
COc1ccc(Nc2oc(/C=C/c3cc(OC)c(OC)c(OC)c3)nc2C#N)cc1	21%
O=C(Cc1ccc(NC(=O)N2CCSc3ncccc32)cc1)NCc1cccc(Cl)c1	-6%
COc1ccc(CCNC(=O)CCn2c(=O)c3ccccc3n(CC(=O)Nc3cccc(C)c3)c2=O)cc1OC	2%
CCc1cccc(NC(=O)CSc2nncn3c2cc2sccc23)c1	11%
Cc1ccc(NC(=O)c2cnc3sc(N4CCOCC4)nn3c2=O)cc1N(C)C	-1%
COc1ccccc1CNC(=O)C1CCN(S(=O)(=O)c2ccc3c(c2)CCCN3C(C)=O)CC1	1%
CCOC(=O)N1CCN(CCC(=O)Nc2cccc(F)c2)CC1	4%
CCOc1ccc(CN2CCc3nc(N4CCN(c5ccccn5)CC4)ncc3C2)cc1OC	?
O=C(NCc1ccccc1F)C1CCN(c2nnc(-n3cccc3)s2)CC1	-21%
Cc1ccc(C(=O)N(Cc2ccco2)Cc2ccco2)cc1	0%
CCC(Sc1nc2ncccc2o1)C(=O)Nc1ccc(OC)c(OC)c1 (stereo not drawn)	-3%
COc1ccc(-c2nn(C)c3sc(C(=O)N4CCN(c5cccc(Cl)c5)CC4)cc23)cc1OC	-5%
CC1CCCN(C(=O)c2cc3c(Cl)nc4ccccc4c3s2)C1 (stereo not drawn)	-26%
COc1ccc(-c2nc3cc(NC(=O)CSc4ccc(C)cc4)ccc3o2)cc1	-44%
O=C(COc1ccccc1F)Nc1ccc(C(=O)OCc2cc(=O)n3nc(C4CC4)sc3n2)cc1	-12%
Cc1cccc2c1-c1sc(C(=O)NCc3ccc(Cl)cc3)cc1CO2	-1%
Cc1ccc(C2CCN(C(=O)Nc3ccc(Cl)cc3)C2)cc1 (stereo not drawn)	-44%
O=S(=O)(c1ccc(F)cc1)N(Cc1nc(-c2ccccc2)no1)C1CCCCC1	-2%
Cc1ccc(NC(=O)CSc2nnc(-c3cc4occc4n3C)n2-c2ccccc2C)c(C)c1	12%
Cn1c(C(=O)N2CCC(C(=O)N3CCN(c4ccccc4)CC3)CC2)cc2sccc21	14%
CCOc1ccc(OCC)c(NC(=O)C(NS(=O)(=O)c2cccs2)c2ccccc2)c1 (stereo not drawn)	-3%
CCCc1nc(SCc2cc(=O)c3ccc(C)c(C)c3[nH]2)n[nH]1	-3%
CCOc1ccccc1NC(=O)c1ccc2c(c1)CCN2S(C)(=O)=O	-21%
CC(=O)Nc1ccc(NC(=O)C2CCCN2S(=O)(=O)c2ccc3c(c2)CCCC(=O)N3)cc1 (stereo not drawn)	-1%
CCOC(=O)c1noc2nc(C)n(CC(=O)Nc3ccc(OC)c(Cl)c3)c(=O)c12	-2%
COc1ccc(Cn2c(CCC(=O)Nc3cc(C)cc(C)c3)nc3cccnc32)cc1	-17%
Cc1ccc(NC(=O)C2CCN(c3nc(-c4ccc(C(C)C)cc4)no3)CC2)c(Cl)c1	30%
O=C(NCCc1ccc(Cl)cc1)c1ccc2c(c1)N(Cc1c(F)cccc1Cl)C(=O)CS2	9%
Cc1cccc(C)c1Nc1nc2ccccc2nc1NS(=O)(=O)c1ccccc1	18%
CC(C)c1ccc(NC(=O)c2cc3c(=O)[nH]c4ccccc4c3n2C)cc1	-7%
CCCOc1cccc(C(=O)Nc2ccc(-c3nc4ccccc4o3)cc2)c1	-15%
COc1ccc(OCC(=O)Nc2ccc3c(c2)N(C)C(=O)c2ccccc2S3)cc1	22%
CC1CCN(S(=O)(=O)c2ccc3c(ccn3CCC(=O)NCc3ccccc3F)c2)CC1	-1%
COc1ccccc1N1CCN(CCCNC(=O)c2cnn(-c3ccccc3Cl)c2C2CCN(C(=O)OC(C)(C)C)CC2)CC1	22%
Cc1ccc(N2CCN(C(=O)C3CCC(CNS(=O)(=O)c4ccc(Br)s4)CC3)CC2C)cc1 (stereo not drawn)	4%

Copied from the list:
Reading of `COc1cc(/C=C(\C#N)C(=O)Nc2ccc(C)cc2)ccc1OCc1cc(=O)n2nc(C)sc2n1` in miR-21 FLuc: -1%
Reading of `COc1ccccc1N1CCN(CCCNC(=O)c2cnn(-c3ccccc3Cl)c2C2CCN(C(=O)OC(C)(C)C)CC2)CC1` in miR-21 FLuc: 22%
Reading of `Cc1ccc(C2CCN(C(=O)Nc3ccc(Cl)cc3)C2)cc1` (stereo not drawn) in miR-21 FLuc: -44%
Reading of `Cc1ccc(C(=O)N2c3ccc(C)cc3C(C)(c3ccccc3)CC2(C)C)cc1` (stereo not drawn) in miR-21 FLuc: 20%
Reading of `CCOC(=O)C1CCCN(S(=O)(=O)c2ccc3[nH]c(=O)oc3c2)C1` (stereo not drawn) in miR-21 FLuc: 0%
Reading of `COc1ccccc1CNC(=O)C1CCN(S(=O)(=O)c2ccc3c(c2)CCCN3C(C)=O)CC1` in miR-21 FLuc: 1%

Next part
SMILES	miR-21 FLuc
CCOc1ccc(Oc2nc(NC)nc(N3CCOCC3)n2)nn1	-7%
Cc1ccc2nc(CN3CCN(C(=O)Nc4ccc(F)cc4)CC3)oc2c1	5%
COC(=O)c1scc(-c2ccc(C)cc2)c1S(=O)(=O)N1CCN(c2ccc(C)cc2C)CC1	15%
COc1ccc(-c2oc3ncn4nc(-c5ccccc5O)nc4c3c2-c2ccc(OC)cc2)cc1	-7%
Cc1ccc(S(=O)(=O)N2CCCc3cc(NS(=O)(=O)c4ccc(F)cc4)ccc32)cc1	11%
Cc1c(Cl)cccc1NS(=O)(=O)c1ccc(-c2cnc(C3CC3)o2)cc1	?
COc1cccc(NC(=O)Cn2c(=O)n(-c3ccccc3)c(=O)c3c4c(sc32)CCCC4)c1	-4%
Cc1cccc(/C(N)=N/OC(=O)c2cccc3ccccc23)c1	-29%
Cc1ccccc1Nc1c(-c2cccc(O)c2)nc2ccc(Br)cn12	17%
Cc1c2cnn(-c3ccccc3)c(=O)c2c(C)n1CC(=O)NCc1ccccc1Br	2%
COc1ccccc1NC(=O)c1c(NCc2sccc2C)sc2c1CCCCC2	-4%
COc1ccccc1CNC(=O)Cn1c(-c2cccs2)cc2cc(F)ccc21	-5%
O=C(NCC1CCN(Cc2ccccc2Cl)CC1)c1cc2ccc3cccnc3c2[nH]1	-4%
CCOC(=O)c1cccc(NC(=O)Cn2c(=O)nc(-c3ccccc3)c3ccccc32)c1	-2%
Cc1ccc(N2CCn3c2nc2c3c(=O)n(C/C=C/c3ccccc3)c(=O)n2C)cc1C	-3%
CCN(Cc1ccccc1)C(=O)Nc1ccc2c(c1)N(C)C(=O)c1ccccc1S2	?
COc1ccc(-c2cc(C(=O)Oc3cccc(C)c3)c3cc(C)ccc3n2)cc1	0%

Assay outcomes: PubChem, National Center for Advancing Translational Sciences (NCATS)
